# Screens from PubChem BioAssay.
# PrP 5UTR inh = inhibition of PrP 5' UTR reporter expression. 340,000 tested, 0.35% active. inhibition, % (no concentration beside the values). cell-based PrP 5' UTR mRNA reporter, plate reader. AID 488862, 2010;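 active means every replicate at 50% or more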;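 further: 0 = median of the neutral control wells; tested in H4 reporter cells; numbers are from one replicate; inactives centre near -14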
# Autofluor counter = compound fluorescence in toxin protease inhibitor counterscreen; 360,000 tested, 3.1% active; AID 624483; fluorescence intensity (no concentration beside the values); compound autofluorescence counterscreen, microsphere flow cytometry; hits give high values;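 active means at least 3 SD above the mean of all compounds, about 16000 in these data; inconclusive means too few beads counted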;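 further: 100 nL of 1 mM stock went into each well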
# ugtP null kill = growth inhibition of ugtP-null S. aureus, primary screen, RN4220 ugtP deletion, OD600 | 16 h; some inactives read as strong as hits | growth inhibition, % (test concentration not listed) | 330,000 tested, 0.54% active;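 active means z-score under -3 and OD600 up to 0.15 on both plates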;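 further: plate controls were untreated wells for no effect and antibiotic for full effect; wells of about 80 µL received 100 nL stock; the first replicate is given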
# RN4220 kill = growth inhibition of S. aureus RN4220, primary screen, OD600; 16 h; inhibition, % (test concentration not listed); 330,000 tested, 0.33% active;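 active means z-score of -3 or lower and OD600 up to 0.18 on both plates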;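 further: plate controls were untreated cells for no effect and reference antibiotic for full effect; stock transfer was 100 nL into about 80 µL; one replicate is shown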
# BJeLR lethal = MLPCN primary cell-based screen for lethality selective to Ras in HRASV12 cells | BJeLR (HRASV12) viability, CellTiter-Glo ATP luminescence, 48 h; reference of the scale not given here | inhibition, % (test concentration not listed) | 300,000 tested, 0.17% active;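 active means replicate mean above 50%; inconclusive means above 50% but judged a plate artefact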;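 further: 50 nL library stock added to about 25 µL; numbers are from one replicate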
# Mtb hypoxia inh = PubChem AID 1159583; M. tuberculosis hypoxia-regulated fluorescent reporter, fluorescence; fluorescence inhibition, % (test concentration not listed); 300,000 tested, 0.1% active;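 active means 35 to 45% if threefold the growth effect, above 45% if 1.5-fold the growth effect; inactive means the rest, general growth blockers included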;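 further: wells of about 50 µL received 100 nL stock; 0% = vehicle wells and 100% = reference inhibitor wells; whole bacteria with a GFP reporter of the hypoxia response; strong numbers were not always called active; many hits fall short of the cut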
# Mtb hypoxia inh growth = recorded beside Mtb hypoxia inh, whose call it bears; growth inhibition, %; measured here: M. tuberculosis growth (absorbance);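 0% = vehicle and 100% = reference antibiotic; read after six days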
# * = called active by the depositor; ? = inconclusive; . = not tested or not shown.
SMILES,PrP 5UTR inh,Autofluor counter,ugtP null kill,RN4220 kill,BJeLR lethal,Mtb hypoxia inh,Mtb hypoxia inh growth
CCN1CCN(c2ncc(C(=O)N3CCCc4ccccc43)c3ccccc23)CC1,-23,4125,12,5.7,-1,.,.
COc1ccc(N2CCN(C(=O)COCC(=O)O)CC2)cc1,10,4444,4,0.8,4,-3,5
CC(OC(=O)C1CCN(S(=O)(=O)c2ccc(Cl)cc2)CC1)C(=O)NC1CCCCC1C (configuration not stated),5,5088,-4,-4.6,-6,5,6
COc1ccc(N2CCN(C(c3cccs3)C(C)NC(=O)c3ccco3)CC2)cc1 (configuration not stated),-3,9643,2,0.1,-3,3,3
Cc1ccc(SCCC(=O)NCc2ccccn2)cc1,-24,3841,9,0.8,4,8,12
Cc1ccc(N=Cc2c(O)c3ccccc3oc2=O)c(C)c1,-27,3000,7,3.1,6,-2,-4
O=C(C=NNc1ccccc1)c1ccccc1,-120,3517,-7,10,.,5,6
CCNCc1nc2cc(Cl)ccc2c(=O)[nH]1,3,3455,2,4.2,0,6,0
CC(C)Nc1nc(-c2ccncc2)nc(-c2ccccc2)c1C#N,8,3558,-1,0.4,-12,-3,5
CCOC(=O)C(C#N)=NNc1c(S(=O)(=O)Cc2ccco2)csc1C(=O)OC,.,.,2,14,.,13,7
O=C(NCc1ccccc1Cl)c1cnc2n(c1=O)CCS2,-6,5980,11,0.5,-1,8,0
O=C(O)CCC(=O)Nc1ccc(C(=O)OCC(=O)c2ccc(Cl)cc2Cl)cc1,-28,2897,5,4.9,-7,2,0
CCOC(=O)C1=C(CC)Nc2ccccc2N=C1NC(=O)c1ccc(OC)c(S(=O)(=O)N2CCCCC2C)c1 (configuration not stated),-3,4180,-1,-1.1,0,8,34
CC(C)(C)c1ccc(C(=O)NCCC(=O)NNC(=O)COc2ccc(F)cc2)cc1,-27,3896,1,10,.,14,8
NC(=O)CNCCC(c1ccccc1)c1ccccc1,-36,4506,0,6.9,.,9,2
Fc1ccccc1CNC(=S)NC1CCCCC1,-8,6331,6,0.4,11,14,9
Nc1ccc2ccc3cccc[n+]3c2c1,-29,3364,.,.,3,.,.
O=C(Nc1ccccc1)C(Cc1ccccc1)c1ccccc1 (configuration not stated),3,3925,-5,-2.2,.,5,8
O=C(C1CCC1)N1CCc2cc(S(=O)(=O)N3CCc4ccccc4C3)ccc21,.,.,4,4.9,2,2,3
Cn1c(=O)c2c(nc(CN3CCN(C(=O)c4ccco4)CC3)n2Cc2ccccc2F)n(C)c1=O,-5,5763,-1,5.6,-6,-3,3
O=C(COc1c(Cl)cccc1Cl)NN1C(=O)CSC1=S,-10,2547,-2,9.7,5,9,5
C/C(=N\NC(=S)Nc1ccc(F)cc1)c1ccc2c(c1)OCCO2,-13,7543,.,.,8,.,.
COc1ccccc1C(=O)NCCC(=O)N(C)Cc1cccs1,-29,6350,-2,-5.1,0,-5,4
CCN(CC)c1ccc(C=NNC(=O)CNC(=O)c2ccc3c(c2)OCCO3)cc1,.,.,7,0.6,.,8,12
O=C(NN=Cc1cccc(Cl)c1)c1n[nH]c2c1CCCC2,.,.,-6,3.1,.,2,-18
# Continued.
SMILES,PrP 5UTR inh,Autofluor counter,ugtP null kill,RN4220 kill,BJeLR lethal,Mtb hypoxia inh,Mtb hypoxia inh growth
COc1ccc(NC(C)C(=O)N/N=C/c2cc(Br)ccc2OC)cc1 (configuration not stated),-28,4687,.,.,2,.,.
CCOc1ccc(NC2CCN(C(C)=O)CC2)cc1,-14,5908,-7,-11,-6,6,7
O=C(CC1(CC(=O)N2CCOCC2)CCCC1)Nc1ccc(F)cc1,-23,3657,4,2.0,.,12,8
O=C(c1cc(COc2ccc(F)cc2Cl)on1)N1CCCCC1c1cccnc1 (configuration not stated),-22,4258,-6,-3.0,11,-2,-4
CCCCCCCC(=O)Nc1cc(C(=O)NCc2ccc(C)cc2)ccc1N1CCC2(CC1)CC(c1ccccc1)=NO2,-9,3574,-11,2.5,-2,4,4
Cc1ccccc1OC(C)C(=O)NC1CCCC1 (configuration not stated),-11,3137,-6,2.5,3,10,10
CC(=O)c1ccc(OCC(=O)OC(C)C(=O)NC2CCCCC2C)cc1 (configuration not stated),.,5505,-1,2.4,.,8,-6
CC1Cc2ccccc2N1C(=O)CCS(=O)(=O)c1cccc2nonc12 (configuration not stated),-7,4571,-9,4.6,-7,14,9
COc1ccccc1CN(Cc1nc2ccccc2c(=O)[nH]1)C(=O)Nc1ccccc1,-6,4713,-9,32,4,.,.
Cc1ccc(S(=O)(=O)N2CCCC(C(=O)Nc3ccc(NC(=O)c4ccccn4)cc3)C2)cc1 (configuration not stated),-10,13684,-11,-3.1,-1,-8,-5
CN(Cc1ccccc1)C(=O)Nc1ccccc1,7,8128,11,2.5,11,7,3
C=CCn1c(-c2cccnc2)n[nH]c1=S,4,10408,7,2.3,5,-6,-1
CC1CCC2(CC1)NC(=S)N(c1ccccc1)N2 (configuration not stated),-14,2760,18,4.3,-8,0,9
CC(=O)Nc1cc(ON=C(C)C)cc([N+](=O)[O-])c1,-11,1887,0,4.6,-1,1,4
CCOc1ccc(-n2ccc(=O)c(C(=O)Nc3ccc(S(=O)(=O)Nc4ncccn4)cc3)n2)cc1,-1,5112,14,4.7,-1,.,.
Cc1ccc(C(=O)NN=C2CCc3ccccc32)c(C)c1,.,.,5,7.7,.,4,3
CCOC(=O)NC(=O)C(=CNc1cccc(C)c1)C(=O)NC(=O)OCC,-22,2017,-5,-4.4,-3,-2,5
Cc1ccc(C)c(N2CCN(S(=O)(=O)c3ccc4c(c3)CC(=O)N4C)CC2)c1,-15,5965,4,5.4,9,1,-3
CN(N=CCc1nnnn1-c1ccc(Cl)cc1)c1ccccc1,.,.,-11,3.4,.,2,3
O=C(CCN1C(=O)COc2ccccc21)NCCCN1CCc2ccccc2C1,-76,18721*,6,2.1,1,5,-6
CC(=O)Oc1ccc2c(c1)OC(c1ccccc1)CC21CC(C)(C)NC(=S)N1 (configuration not stated),14,2645,19,31,1,6,0
Clc1ccc(NN=Cc2ccncc2)cc1Cl,.,.,31,33,.,-2,-4
CCOC(=O)c1c(C(F)(F)F)nc2ncccn12,-2,3002,9,1.7,0,.,.
CCOC(=O)c1c(N)sc(C(C)=O)c1C,-26,9320,9,1.9,7,-2,14
O=C(O)CCc1ccc(-c2ccc(Br)cc2)o1,-95,23745*,1,4.8,1,1,8

# No new results follow: 4 of the compounds above.
SMILES,PrP 5UTR inh,Autofluor counter,ugtP null kill,RN4220 kill,BJeLR lethal,Mtb hypoxia inh,Mtb hypoxia inh growth
CN(Cc1ccccc1)C(=O)Nc1ccccc1,7,8128,11,2.5,11,7,3
C=CCn1c(-c2cccnc2)n[nH]c1=S,4,10408,7,2.3,5,-6,-1
CC1CCC2(CC1)NC(=S)N(c1ccccc1)N2 (configuration not stated),-14,2760,18,4.3,-8,0,9
CC(=O)Nc1cc(ON=C(C)C)cc([N+](=O)[O-])c1,-11,1887,0,4.6,-1,1,4

# (further entries)
SMILES,PrP 5UTR inh,Autofluor counter,ugtP null kill,RN4220 kill,BJeLR lethal,Mtb hypoxia inh,Mtb hypoxia inh growth
Cc1ccc(NC(=O)Cn2ccc([N+](=O)[O-])n2)cc1Cl,-8,4550,0,-1.8,-7,-1,16
Cc1cccn2c(=O)c(/C=C(\C#N)S(=O)(=O)c3ccccc3)c(N3CCN(Cc4ccccc4)CC3)nc12,-19,5600,8,-1.2,-24,5,2
O=C(Nc1ccc(OC(F)(F)F)cc1)c1[nH]ncc1[N+](=O)[O-],-10,3566,-12,4.5,0,-11,9
O=C(NN=Cc1ccc(-c2ccc(Br)cc2)o1)c1ccc2c(c1)OCO2,.,.,-5,-2.9,.,-9,5
COc1ccc(CCN=C(N)NS(=O)(=O)c2ccccc2)cc1,0,2100,1,2.5,4,6,6
Cc1ccc(-c2csc(NC(=O)c3c(C)noc3C)n2)cc1C,-13,.,6,15,.,12,-2
CCCCC(CC)Cn1c2nc3ccccc3nc2c2c(=N)oc(C)nc21 (configuration not stated),.,.,-13,5.3,-7,4,-2
CCCCN1C(=O)C(O)=C(C(C)=O)C1c1ccccc1[N+](=O)[O-] (configuration not stated),-29,2647,3,7.4,-3,6,4
COc1ccc(NC(=O)Nc2cc(C(C)(C)C)on2)cc1OC,-12,5288,1,4.9,-3,9,-10
CCOC(=O)C1C2COc3cc(OC)ccc3C2N2C(=O)CN(CC3CCCO3)C(=O)[C@@]12C (some centres not stated),.,.,2,8.0,.,20,8
Clc1ccccc1C(c1ccccc1)(c1ccccc1)n1ccnc1,-43,5577,46,26,1,19,21
Cc1nc(S(=O)(=O)c2ccc(Cl)cc2)nc2c1CCC2,-32,2747,-6,-13,-3,2,5
O=C(NCCN1CCOCC1)C1CC(=O)N(c2ccc(Cl)cc2)C1 (configuration not stated),2,3635,5,5.3,-1,1,-3
COc1ccccc1C(=O)N1CCN(S(=O)(=O)Cc2ccccc2)CC1,-11,8214,0,7.6,-6,8,11
CCOc1ccc2ncc(S(=O)(=O)c3ccccc3)c(N3CCN(c4ccccc4)CC3)c2c1,-10,6223,9,0.6,0,12,7
Cc1ccc(F)cc1NC(=O)COC(=O)c1ccc2ncsc2c1,-11,2913,7,3.4,.,-2,-1
COc1ccccc1C(=O)OCC(=O)c1cccc([N+](=O)[O-])c1,-11,2395,8,2.2,7,6,1
O=C(NC(=O)c1ccccc1Cl)C(=O)Nc1ccc(Cl)cc1,-24,5966,-9,-5.6,8,-6,-6
O=[N+]([O-])c1ccc(O)c(/C=N/n2c(CO)nc3ccccc32)c1,-13,4870,.,.,-3,.,.
COc1ccc(OC)c(NC(=O)COC(=O)c2ccc(OC)c(S(=O)(=O)N3CCOCC3)c2)c1,-6,7834,1,3.3,.,5,-9
Cc1cccc(NC(=O)/C(=C\c2cccs2)NC(=O)c2ccccc2)c1,-21,3365,-11,-7.4,9,8,2
COC(=O)Cc1n[nH]c(=S)[nH]c1=O,1,12214,2,2.8,-7,21,4
Cc1cccc(NC(=O)C2(c3cccs3)CCOCC2)n1,-5,2001,11,1.0,3,3,4
CCN(CC)CCCN1C(=O)C(=O)/C(=C(/O)c2ccccc2)C1c1cc(OC)ccc1OC (configuration not stated),-8,2872,.,.,-2,.,.
O=P(O)(CP(=O)(c1ccccc1)c1ccccc1)c1ccccc1O,-18,10338,2,3.9,4,15,2
# Additional results follow:
SMILES,PrP 5UTR inh,Autofluor counter,ugtP null kill,RN4220 kill,BJeLR lethal,Mtb hypoxia inh,Mtb hypoxia inh growth
Fc1ccc2c(c1)C(=NNc1ccccn1)CCS2,.,.,6,6.8,.,-4,3
CC(=NOC(=O)c1ccc(C(F)(F)F)cc1)c1oc(C)nc1C,.,.,6,5.8,.,8,0
Nc1nc(N)nc(-c2ccccc2-c2nc(N)nc(N)n2)n1,-21,3647,.,.,2,.,.
CCOc1ncccc1C(=O)N1CCN(S(=O)(=O)c2ccccc2)CC1,-15,5348,2,-1.6,9,3,-4
COc1ccc(Cc2nnc(NC(=O)Nc3ccccc3)s2)cc1OC,-18,3838,8,-1.1,-1,12,2
CN1C(=O)CSc2ccc(NC(=O)NCCC3=CCCCC3)cc21,-12,8467,-3,6.3,3,7,6
COC(=O)C(C)NC(=O)C=Cc1ccc(OC)cc1 (configuration not stated),.,.,3,9.3,.,1,6
Cn1c(NCCN(CCO)CCCc2ccc([N+](=O)[O-])cc2)cc(=O)n(C)c1=O,-14,5664,-1,7.7,3,-1,2
COc1ccc(N2CCN(S(=O)(=O)c3ccc(Br)s3)CC2)cc1,-11,?,14,5.7,2,11,6
COc1cccc(SCc2noc(C(=O)NCCCN3CCOCC3)c2C(=O)NCCCN2CCOCC2)c1,-12,3801,2,6.4,2,22,17
CC(=O)N1c2ccc(S(=O)(=O)N3CCCCC3)cc2CC1C(=O)NCc1ccc(N(C)C)cc1 (configuration not stated),7,4521,10,-0.9,2,0,3
CCOC(=O)c1c(C)n(OC)c2ccc3c(no[n+]3[O-])c12,-18,10915,9,9.6,-8,18,9
COC(=O)N/N=C/c1c(C)c(C(=O)c2ccc(F)cc2)n2ccccc12,-19,10568,.,.,-22,.,.
O=C1NC(=S)N/C1=C/c1cccnc1,-6,4152,4,4.0,18,2,17
C#CCOCCOCCOCCNc1nc(N2CCOCC2)nc(N2CCN(C(=O)[C@H](CCCCN)n3cc([C@@H](N)C(C)CC)nn3)CC2)n1 (some centres not stated),-36,3677,.,.,-2,.,.

# Quoted from the listing.
# In PrP 5UTR inh, O=C(CCN1C(=O)COc2ccccc21)NCCCN1CCc2ccccc2C1 is entered as -76
# In BJeLR lethal, Cc1ccc(SCCC(=O)NCc2ccccn2)cc1 is entered as 4
